Bioassay records from PubChem BioAssay.
LANA-H2A inh = blocks KSHV LANA binding to histone H2A/H2B; cell-free LANA-H2A/H2B peptide, fluorescence polarization; inhibition, % (no concentration beside the values); hit rate 0.6% among 320,000; in the data active = inhibition mostly above about 10%, no sharp cut-off; inactive = mostly below about 6.7%;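 also: stock transfer was 7.5 nL into about 10 µL; 0% = median of vehicle wells and 100% = median of positive control wells; one replicate is shown; the record names a cut of 25% in any replicate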
Target sequence (Q9QR71 whole entry, looked up): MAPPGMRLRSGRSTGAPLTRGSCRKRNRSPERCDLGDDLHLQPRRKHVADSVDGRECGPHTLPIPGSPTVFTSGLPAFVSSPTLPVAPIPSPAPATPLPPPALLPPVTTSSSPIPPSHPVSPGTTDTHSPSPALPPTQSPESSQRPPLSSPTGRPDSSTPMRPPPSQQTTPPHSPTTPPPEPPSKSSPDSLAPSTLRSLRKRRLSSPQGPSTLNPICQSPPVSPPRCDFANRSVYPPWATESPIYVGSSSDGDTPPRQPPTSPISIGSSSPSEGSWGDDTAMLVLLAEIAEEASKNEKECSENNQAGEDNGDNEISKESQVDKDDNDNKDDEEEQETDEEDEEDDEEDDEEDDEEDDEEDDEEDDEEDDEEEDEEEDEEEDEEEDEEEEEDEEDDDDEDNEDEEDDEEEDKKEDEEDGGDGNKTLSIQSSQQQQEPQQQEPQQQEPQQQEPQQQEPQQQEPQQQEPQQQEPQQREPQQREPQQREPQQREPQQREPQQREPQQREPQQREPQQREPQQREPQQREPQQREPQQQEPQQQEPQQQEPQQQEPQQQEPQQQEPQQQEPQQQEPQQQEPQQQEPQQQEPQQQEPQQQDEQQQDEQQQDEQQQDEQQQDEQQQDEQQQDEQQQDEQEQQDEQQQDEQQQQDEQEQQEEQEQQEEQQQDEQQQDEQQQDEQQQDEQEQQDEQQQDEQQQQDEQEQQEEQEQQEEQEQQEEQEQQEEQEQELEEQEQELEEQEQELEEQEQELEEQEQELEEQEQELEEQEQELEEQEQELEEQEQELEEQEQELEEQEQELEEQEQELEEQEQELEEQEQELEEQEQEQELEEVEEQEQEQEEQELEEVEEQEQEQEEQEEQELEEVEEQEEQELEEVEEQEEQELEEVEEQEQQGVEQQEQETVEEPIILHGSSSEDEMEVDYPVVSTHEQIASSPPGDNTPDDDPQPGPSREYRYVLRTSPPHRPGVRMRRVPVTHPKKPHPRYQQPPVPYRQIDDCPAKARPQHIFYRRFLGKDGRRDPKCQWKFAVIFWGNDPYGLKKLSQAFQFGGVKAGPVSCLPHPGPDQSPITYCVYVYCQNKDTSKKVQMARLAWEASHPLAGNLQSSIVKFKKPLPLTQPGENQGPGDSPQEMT
Ecoli growth = E. coli growth inhibition; Escherichia coli growth, OD600, 23 h; stronger effect = lower value; OD600 absorbance (concentration not given with the values); hit rate 0.21% among 330,000;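 active = OD600 absorbance below the run mean of sample wells minus 3.6 SD, in any replicate, cut at about 0.56 in these data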;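 also: stock transfer was 300 nL into about 60 µL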
UCH37 inh = inhibitors of human deubiquitinating enzyme UCH37; hit rate 0.33% among 330,000; Q9Y5K5; inhibition, % (concentration not given with the values); purified proteasome/UCH37, Ub-AMC cleavage fluorescence;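 active = mean of two replicates above 20%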;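 also: 0% = compound-free wells with enzyme and 100% = wells lacking proteasome; stock transfer was 100 nL into about 20 µL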
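System: Proteasome-associated human UCH37 deubiquitinase; Input: 0.15 nM proteasome in added enzyme buffer; Also added: Ub-AMC substrate from 1 µM stock; Incubation: 30 min compound-proteasome preincubation then 25 min substrate reaction, room temperature; Detection: fluorescence, ex 355 nm, em 460 nm; Read-out: % inhibition of Ub-AMC cleavage fluorescence; Benchmarks: no-proteasome and no-compound wells.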
Beta2AR agonist = activates human beta-2 adrenergic receptor causing internalization; P07550; Am2.2-beta2AR cells, FAP receptor internalization, flow cytometry; reference of the scale not given here; response, % (concentration not given with the values); hit rate 0.43% among 340,000;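 active = response above a set limit, near 3 SD of response in nonfluorescent compounds, cut at about 42% in these data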;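 also: stock transfer was 100 nL into about 11 µL; a reference agonist was the positive control; negative values mostly stem from fluorescent compounds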
FGF22 binding = shifts melting point of recombinant human FGF22 | AID 651658 | hit rate 1.5% among 340,000 | Q9HCT0 | recombinant FGF22 thermal shift, SYPRO orange fluorescence; percent of sucrose octasulfate shift, DMSO zero | calls only at 9.99 µM;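 active = melting point raised past a set limit in the mean and every replicate; three in four hits are not shown here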
HNF4A DNA FP = change in binding of human HNF4 alpha to DNA. HNF4a-FITC DNA binding, fluorescence polarization, 1 h. activity change, % at 10 µM. hit rate 0.3% among 360,000; in the data active = activity change above about 30%, passing the limit was not always enough;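 also: controls were the assay level and a saturating level of protein; the project sought stronger binding though the title names inhibitors; some compounds called inactive have numbers as strong as hits; positive values seem to mean higher polarization but the record does not say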
ALR H2O2 inh = human ALR oxidase inhibition via reduced H2O2; P55789; inhibition, % (concentration not given with the values); hit rate 3.8% among 290,000; AID 485317; purified ALR, DTT oxidation, H2O2 HRP-luminol luminescence;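 active = mean and each replicate at 75% or more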;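 also: stock transfer was 7.5 nL into about 7.5 µL; 0% = neutral wells and 100% = wells with inactivated enzyme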
The depositor's hits bear a star; i = inactive; nt = no result given. Only part of the results is shown. The share of hits here may be higher or lower than overall.

No. | smiles | LANA-H2A inh | Ecoli growth | UCH37 inh | Beta2AR agonist
1 | O=C1c2ccc(-c3ccc(F)cc3OCc3ccccc3)cc2S(=O)(=O)c2cccc(C(=O)N3CCN(c4ncc(Br)cn4)CC3)c21 | 4.7 | 0.68 | 4.5 | 1
2 | COc1cccc(CC(NC(C)=O)C(=O)NC2CCN(c3c4c(nc5ncnn35)CCC4)CC2)c1OC (stereo unspecified) | 4.8 | 0.68 | 3.4 | nt
3 | O=C(O)/C(=C\c1cccs1)c1ccccc1 | 4.2 | 0.66 | 0.3 | -2
4 | CCOc1ccc2c(c1)sc1nc(C(=O)OC)cc(=O)n12 | 0.5 | 0.65 | -169 | 2
5 | COCCCNC(=O)NC(=O)c1ccccc1 | 5.7 | 0.65 | 2.2 | 8
6 | CCOC(=O)C1CCCN(c2c(NCCCN(C)Cc3ccccc3)c(=O)c2=O)C1 (stereo unspecified) | 0.7 | 0.73 | -2.3 | 3
7 | CCOC(=O)N1CCN(C(=O)CN(Cc2ccc(Cl)cc2)S(C)(=O)=O)CC1 | -4.2 | 0.75 | 2.2 | -4
8 | c1ccc(CN2CCN(c3nc4ccccc4n4cnnc34)CC2)cc1 | -4.1 | 0.71 | 9.8 | -7
9 | Clc1ccc2oc(-c3ccccc3)cc(=NCCCN3CCOCC3)c2c1 | nt | 0.55 | 4.7 | -17
10 | O=C(CN1CCOc2ccccc21)NC1CCN(Cc2ccccc2)CC1 | -4.6 | 0.75 | 3.0 | 4
11 | CCS(=O)(=O)N1CCc2cc(OC)c(OC)cc2C1 | -3.5 | 0.71 | -3.9 | -4
12 | CC(C)Cc1cc(C(=O)Nc2cc(Cl)ccc2Cl)no1 | 0.3 | 0.74 | -0.7 | 14
13 | O=C(NCc1ccc(F)cc1)C(Cc1ccccc1)n1cccc1 (stereo unspecified) | -1.3 | 0.69 | 1.4 | 7
14 | COc1ccc(OC)c(-n2c(C)cc(C=O)c2C)c1 | 0.0 | 0.71 | 1.3 | 7
15 | COC(=O)c1cc(CN2C(=O)c3ccccc3C2=O)c(O)c([N+](=O)[O-])c1 | 1.4 | 0.66 | 8.2 | 13

No. | FGF22 binding | HNF4A DNA FP | ALR H2O2 inh
1 | i | -1.5 | 0
2 | nt | nt | -8
3 | i | 0.2 | 45
4 | nt | 3.4 | -8
5 | nt | -0.4 | -2
6 | nt | 1.0 | -2
7 | nt | -3.0 | -1
8 | i | -2.7 | -14
9 | i | -0.2 | nt
10 | i | -0.8 | 87*
11 | nt | 0.6 | -6
12 | i | 3.0 | 2
13 | i | -0.2 | nt
14 | i | -0.1 | -60
15 | i | 0.5 | 1

(listing goes on)
No. | smiles | LANA-H2A inh | Ecoli growth | UCH37 inh | Beta2AR agonist
16 | CCC(CC)C(=O)OCC(=O)Nc1cccc([N+](=O)[O-])c1 | -3.9 | 0.69 | 5.3 | -3
17 | Cc1sc(N)c(C#N)c1C | 1.4 | 0.7 | 0.5 | 14
18 | COc1ccc(-c2nnc(OCc3ccccc3)c3ccccc23)cc1 | 0.2 | 0.68 | -0.7 | -1
19 | CCC1=NN(C(=O)c2ccc(Cl)cc2)C(O)(c2ccccc2)C1 (stereo unspecified) | -1.2 | 0.67 | 1.8 | 1
20 | Cc1ccc(OCC(=O)NCCNC(=O)c2ccccn2)cc1 | -8.4 | 0.69 | 1.1 | -5
21 | O=C(NC1CCN(Cc2ccc(Cl)cc2Cl)CC1)c1ccccc1 | 1.6 | 0.66 | 1.0 | -1
22 | OCC1OC(n2cnc3c(NCc4ccccc4O)ncnc32)C(O)C1O (stereo unspecified) | nt | nt | nt | -3
23 | O=C(NCCCN1CCOCC1)c1cc(-c2ccc(F)cc2)no1 | -6.8 | 0.64 | 1.8 | -5
24 | CN1CCN(c2ccncc2S(=O)(=O)N2CCCCC2)CC1 | -3.9 | nt | nt | 3
25 | Cn1c(=O)c2c(nc(NCCO)n2CCc2ccccc2)n(C)c1=O | -0.3 | 0.67 | 0.1 | -1
26 | CC1(C)N=C(c2ccccc2)C(=O)N1 | -2.3 | 0.71 | 1.3 | 1
27 | COCCN(C(=O)CSc1nnc(-c2cccc(C)c2)n1C)c1c(N)n(Cc2ccccc2)c(=O)[nH]c1=O | 2.4 | 0.71 | 5.8 | -9
28 | COc1ccc(CCN2CC(C(=O)NCc3cccc4[nH]ccc34)CCC2=O)cc1 (stereo unspecified) | 3.1 | 0.7 | 1.6 | 3
29 | Clc1ccc(OCc2cc(-c3ccccc3)no2)cc1Cl | -11 | 0.64 | 2.5 | -2
30 | Cc1cccc(-n2c(=O)c(C#N)cc3c(=O)n4ccccc4nc32)c1 | 1.8 | 0.72 | i | -2

No. | FGF22 binding | HNF4A DNA FP | ALR H2O2 inh
16 | i | -0.4 | 11
17 | i | 0.4 | nt
18 | i | 0.6 | -10
19 | i | 1.5 | 28
20 | i | 2.2 | -2
21 | i | -4.5 | nt
22 | i | 2.7 | nt
23 | i | -2.3 | 11
24 | i | 4.5 | -17
25 | nt | 1.4 | 29
26 | nt | -1.0 | nt
27 | i | 0.3 | 3
28 | i | 0.7 | -7
29 | i | 2.8 | 3
30 | nt | -3.7 | 0

ALR H2O2 inh, what is marked active above
nr | structure | LANA-H2A inh | UCH37 inh | Beta2AR agonist | FGF22 binding | HNF4A DNA FP | ALR H2O2 inh
10 | O=C(CN1CCOc2ccccc21)NC1CCN(Cc2ccccc2)CC1 | -4.6 | 3.0 | 4 | i | -0.8 | 87*

The list continues:
No. | smiles | LANA-H2A inh | Ecoli growth | UCH37 inh | Beta2AR agonist
31 | COc1ccc(S(=O)(=O)/C(C#N)=C/Nc2ccccc2F)cc1 | 1.2 | 0.68 | 4.8 | 2
32 | COc1ccc(S(=O)(=O)N2CCN(C/C=C/c3ccccc3)CC2)cc1F | 0.8 | nt | nt | 0
33 | O=C(NC1CCCCC1)NC1CC2CCCC(C1)N2C1CCCC1 (stereo unspecified) | 1.0 | 0.7 | -1.0 | -6
34 | CCOC(=O)Cc1csc(NC(=O)C2C3C=CC(C3)C2C(=O)O)n1 (stereo unspecified) | 1.6 | 0.78 | 5.1 | -11
35 | Cc1cccc(N2CCN(C(=O)C3CC(=O)N(c4ccc5c(c4)OCCO5)C3)CC2C)c1 (stereo unspecified) | nt | 0.66 | 3.7 | 15
36 | Cc1ccc(OCc2nc(C#N)c(NCc3ccc4c(c3)OCO4)o2)cc1 | -3.7 | 0.71 | 2.6 | 1
37 | C=CCN(C(=O)c1cccc(C(F)(F)F)c1)C1(C(=O)Nc2ccccc2)CCN(C(C)C)CC1 | -7.5 | 0.66 | 2.0 | 2
38 | CC1(C)CC[C@]2(C(=O)O)CC[C@]3(C)C(=CCC4[C@@]5(C)CC[C@H](O)C(C)(C)C5CC[C@]43C)C2C1 (stereo partly specified) | -3.6 | nt | -1.9 | 0
39 | Cc1cc(=O)c2ccccc2[nH]1 | 2.9 | 0.68 | 4.0 | -1
40 | CS(=O)(=O)c1ccc(-c2nnn(CC(=O)Nc3ccc4c(c3)OCCO4)n2)cc1 | 2.7 | 0.68 | 3.3 | 0
41 | Cc1ccccc1N=C(NO)c1nonc1N | 3.7 | 0.64 | 3.3 | 5
42 | Cc1ccc(-c2nc3ncccn3c2NC(=O)C2CC2)cc1 | 1.9 | 0.76 | -70 | -7
43 | Cc1ccc(S(=O)(=O)N(C)C)cc1NC(=O)CN1C(=O)NC(Cc2ccccc2)C1=O (stereo unspecified) | 1.0 | 0.7 | 3.8 | 10
44 | COc1ccccc1C(=O)NCc1ccccn1 | 2.7 | 0.7 | -1.5 | 4
45 | CCOC(=O)c1sc2ncnc(N3CCN(C)CC3)c2c1C | -1.7 | 0.68 | -9.0 | -11

No. | FGF22 binding | HNF4A DNA FP | ALR H2O2 inh
31 | i | 2.5 | -4
32 | i | -0.7 | nt
33 | nt | 0.3 | 1
34 | nt | -0.5 | 3
35 | i | 0.2 | 49
36 | nt | -6.0 | 2
37 | i | -0.1 | -6
38 | i | -6.5 | -5
39 | nt | -1.4 | nt
40 | i | 1.8 | -5
41 | nt | -2.4 | 9
42 | nt | -2.1 | 1
43 | nt | 2.4 | -6
44 | i | 3.9 | -6
45 | i | -4.1 | 10

Three entries picked at random from the list so far, as already listed:
No. | smiles | LANA-H2A inh | Ecoli growth | UCH37 inh | Beta2AR agonist
10 | O=C(CN1CCOc2ccccc21)NC1CCN(Cc2ccccc2)CC1 | -4.6 | 0.75 | 3.0 | 4
9 | Clc1ccc2oc(-c3ccccc3)cc(=NCCCN3CCOCC3)c2c1 | nt | 0.55 | 4.7 | -17
44 | COc1ccccc1C(=O)NCc1ccccn1 | 2.7 | 0.7 | -1.5 | 4

No. | FGF22 binding | HNF4A DNA FP | ALR H2O2 inh
10 | i | -0.8 | 87*
9 | i | -0.2 | nt
44 | i | 3.9 | -6

More entries.
No. | smiles | LANA-H2A inh | Ecoli growth | UCH37 inh | Beta2AR agonist
46 | O=C(NCc1ccccc1)C1(C(F)(F)F)CC(CCCO)CCCO1 (stereo unspecified) | 2.7 | 0.7 | 3.6 | -4
47 | O=C(NC1CCN(S(=O)(=O)c2cccc(Cl)c2)CC1)C1CCCCC1 | -1.9 | 0.69 | -0.1 | -6
48 | COc1ccc(NC(=O)/C(N=Nc2cc(S(=O)(=O)Nc3ccc(OC)cc3)ccc2OC)=C(\C)O)cc1 | 1.3 | 0.71 | 2.7 | 2
49 | O=C(C1CC(=O)N(c2ccc3c(c2)OCCO3)C1)N1CCN(c2ccccc2O)CC1 (stereo unspecified) | 0.4 | 0.65 | 1.2 | 18
50 | O=C(OCC(=O)N1c2ccccc2Sc2ccccc21)C1CC(=O)N(Cc2ccco2)C1 (stereo unspecified) | -0.2 | 0.71 | 3.2 | 4
51 | C/C=C(\C)C(=O)NCCN1C2=NC[C@H](C(C)C)N2C[C@@H]1Cc1ccc(OC)cc1 | -1.3 | nt | 2.5 | -4
52 | CS(=O)(=O)N(CCC#N)Cc1ccco1 | -6.2 | 0.65 | 2.4 | -2
53 | CC1CCCCN1C(=O)c1cc2nc(-c3ccccc3)cc(-c3ccccc3)n2n1 (stereo unspecified) | -4.5 | 0.75 | -47 | 29
54 | C=CCNC(=O)CC(=O)N/N=C/c1cccc(Br)c1 | -1.6 | nt | nt | 11
55 | CCOC(=O)NC(=O)c1cn(Nc2ncc(Cl)cc2C(F)(F)F)c(=O)[nH]c1=O | -0.5 | 0.72 | 6.2 | -1
56 | Cc1cccc(COc2ccccc2C(=O)OCC(=O)N(C)c2c(N)n(Cc3ccccc3)c(=O)[nH]c2=O)c1 | 4.3 | 0.67 | 0.5 | -2
57 | O=C(O)CNC(=O)/C(=C\c1cccc([N+](=O)[O-])c1)NC(=O)c1ccco1 | 0.6 | 0.67 | 1.2 | 3
58 | O=C(NC1CC1)c1nc(Cn2ccc([N+](=O)[O-])n2)no1 | 5.7 | 0.64 | -0.7 | 0
59 | COC(=O)/C(=C1\Oc2ccc(C(C)(C)C)cc2S1)C(F)(F)F | -4.7 | 0.71 | 1.8 | 2
60 | Cc1ccc(S(=O)(=O)NNC(=O)Nc2ccc([N+](=O)[O-])cc2)c(C)c1 | 0.0 | 0.67 | 8.7 | -1

No. | FGF22 binding | HNF4A DNA FP | ALR H2O2 inh
46 | i | 1.9 | -15
47 | i | 1.1 | -9
48 | i | -3.9 | 1
49 | i | 4.3 | 84*
50 | nt | 1.6 | -11
51 | i | -0.1 | -16
52 | i | -0.7 | -4
53 | nt | 4.9 | -10
54 | i | -4.9 | -5
55 | i | -2.6 | nt
56 | i | 7.7 | -3
57 | i | -1.9 | nt
58 | i | -0.5 | 10
59 | i | -2.2 | -9
60 | i | 0.0 | -6
